Beta2AR agonist: agonists of human beta-2 adrenergic receptor inducing internalization | P07550 | Am2.2-beta2AR cells, FAP receptor internalization, flow cytometry; reference of the scale not given here | AID 504454 | hit rate 0.43% among 340,000 | response, % (concentration not given with the values);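 active = response above a set limit, near 3 SD of response in nonfluorescent compounds, cut at about 42% in these data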;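 also: stock transfer was 100 nL into about 11 µL; a reference agonist was the positive control; negative values mostly stem from fluorescent compounds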
Target sequence (P07550 whole entry, looked up): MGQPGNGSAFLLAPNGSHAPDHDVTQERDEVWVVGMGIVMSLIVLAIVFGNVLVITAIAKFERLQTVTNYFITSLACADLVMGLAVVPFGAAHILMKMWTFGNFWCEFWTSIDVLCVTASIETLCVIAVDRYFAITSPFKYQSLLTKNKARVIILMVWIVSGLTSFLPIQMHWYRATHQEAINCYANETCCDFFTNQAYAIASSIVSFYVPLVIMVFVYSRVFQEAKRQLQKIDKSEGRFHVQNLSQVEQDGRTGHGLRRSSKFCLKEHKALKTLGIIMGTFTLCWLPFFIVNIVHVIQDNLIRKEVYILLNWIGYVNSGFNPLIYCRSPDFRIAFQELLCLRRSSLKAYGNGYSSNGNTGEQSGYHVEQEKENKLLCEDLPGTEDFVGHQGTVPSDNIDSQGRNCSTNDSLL
FGF22 binding: shifts melting point of recombinant human FGF22 | Q9HCT0 | recombinant FGF22 thermal shift, SYPRO orange fluorescence; percent of sucrose octasulfate shift, DMSO zero | calls only at 9.99 µM | hit rate 1.5% among 340,000 | AID 651658;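 active = melting point raised past a set limit in the mean and every replicate; three in four hits are not shown here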
Target sequence (Q9HCT0 whole entry, looked up): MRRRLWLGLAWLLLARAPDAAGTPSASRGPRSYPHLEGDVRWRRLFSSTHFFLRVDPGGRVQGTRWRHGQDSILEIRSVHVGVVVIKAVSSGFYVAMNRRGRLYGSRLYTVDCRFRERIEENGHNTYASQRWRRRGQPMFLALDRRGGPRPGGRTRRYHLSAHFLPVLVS
HNF4A DNA FP: change in binding of human HNF4 alpha to DNA; P41235; HNF4a-FITC DNA binding, fluorescence polarization, 1 h; activity change, % at 10 µM; hit rate 0.3% among 360,000; AID 1224865; in the data active = activity change above about 30%, passing the limit was not always enough;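 also: controls were the assay level and a saturating level of protein; the project sought stronger binding though the title names inhibitors; some compounds called inactive have numbers as strong as hits; positive values seem to mean higher polarization but the record does not say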
Target sequence (P41235 whole entry, looked up): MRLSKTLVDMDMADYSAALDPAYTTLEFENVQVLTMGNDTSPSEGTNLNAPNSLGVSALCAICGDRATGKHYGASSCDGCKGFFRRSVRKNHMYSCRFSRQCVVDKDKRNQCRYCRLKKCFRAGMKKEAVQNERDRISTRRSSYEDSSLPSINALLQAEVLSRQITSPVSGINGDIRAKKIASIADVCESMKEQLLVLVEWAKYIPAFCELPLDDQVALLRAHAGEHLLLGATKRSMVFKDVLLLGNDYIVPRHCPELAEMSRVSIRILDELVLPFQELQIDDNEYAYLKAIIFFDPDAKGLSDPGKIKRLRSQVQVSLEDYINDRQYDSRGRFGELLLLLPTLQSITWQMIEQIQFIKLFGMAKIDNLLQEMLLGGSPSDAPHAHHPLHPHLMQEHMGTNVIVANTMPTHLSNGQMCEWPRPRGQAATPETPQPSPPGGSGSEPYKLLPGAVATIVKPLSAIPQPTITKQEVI
* hit, by the source's call; i = inactive; . = not tested or not shown.

| Beta2AR agonist | HNF4A DNA FP | FGF22 binding | canonical_smiles |
| --- | --- | --- | --- |
| -3 | 0.3 | . | COc1ccc(/C=N/NC(=O)c2[nH]c(C)c(C(=O)N/N=C/c3ccc(OC)cc3)c2C)cc1 |
| -7 | 7.5 | . | Cc1nc2ccccc2n1CC(=O)N/N=C\C=C\c1ccccc1 |
| 14 | -6.6 | . | N#Cc1cccc2c1-c1ccccc1/C2=N/NC(N)=O |
| -3 | 2.6 | . | CCCc1cc2c(c(NC(C)=O)n1)c(=O)oc1ccccc12 |
| 0 | 1.9 | . | Cn1cccc1/C=N/n1c(-c2ccc(C(C)(C)C)cc2)n[nH]c1=S |
| 2 | 0.1 | . | C/C(CCc1oc2ccc(Br)cc2c1-c1ccc(C)o1)=N/O |
| 1 | -7.3 | . | COc1ccc(Br)cc1/C=N/NC(=O)CNC(=O)/C=C/c1ccccc1 |
| 9 | -3.7 | . | O=C(N/N=C/c1cccs1)c1cc(-c2ccncc2)nc2ccccc12 |
| 5 | 5.2 | . | Cc1ccc2cc(C#N)c(SCC(=O)NNC(=O)Cc3ccccc3)nc2c1 |
| 6 | -2.0 | . | CCC(C)(C)n1nnnc1C(c1cc2cc(C)cc(C)c2[nH]c1=O)N1CCN(Cc2ccc3c(c2)OCO3)CC1 (stereo not drawn) |
| 2 | -2.0 | . | COc1cccc(/C=N/NC(=O)CSc2ccccc2C)c1O |
| -1 | 3.6 | . | CC1(C)CC(=O)C(/C=N/c2ccccn2)=C(O)C1 |
| 9 | -0.4 | . | Cc1cccc2cc(/C=N/NC(=O)CN3CCOCC3)c(Cl)nc12 |
| 1 | -1.9 | . | CCOc1ccc(/C=N/n2c(SC)nnc(C(C)(C)C)c2=O)cc1 |
| -7 | 1.5 | . | COC(=O)/C=c1/s/c(=C(/C#N)C(=O)N2CCCCC2)n(-c2ccccc2)c1=O |
| -7 | -0.2 | . | Cc1ccc2cc(/C=N/NC(=O)[C@H](C)NC(=O)OC(C)(C)C)c(Cl)nc2c1 |
| 5 | -1.5 | . | CCOC(=O)NC(=O)/C(C#N)=N/Nc1c(F)cccc1F |
| 2 | -3.3 | . | O=C(O)CC/C(=N\Nc1ccc(S(=O)(=O)N2CCCC2)cc1[N+](=O)[O-])c1cccs1 |
| 13 | 0.6 | . | Cc1cc(N/N=C/c2ccc(O)cc2O)nc(-n2nc(C)cc2C)n1 |
| -17 | 1.8 | . | NC(=O)CSc1nc2sc(-c3ccccc3)cc2c(=O)n1N |
| -8 | 2.7 | . | Cc1ccc(S(=O)(=O)N/N=C2/CCCCC2C2CCCCC2)cc1[N+](=O)[O-] (stereo not drawn) |
| 10 | -0.2 | . | CN(C)c1ccc2c(c1)C(=NO)c1ccccc1-2 |
| 5 | 4.5 | . | CN(CCC1CCCCO1)C(=O)CCc1nnc(CCCCc2ccccc2)o1 (stereo not drawn) |
| -11 | 21 | . | COc1ccc(N=C2NC(=O)S/C2=C\c2ccc(N(C)C)cc2)cc1 |
| -11 | 0.7 | . | Cc1nn(-c2ccccc2)c(Cl)c1/C=N/NC(=O)c1ccc(CNc2ccccc2)o1 |
| -1 | -7.3 | . | COc1ccc(-c2ccc(/C=N/NC(=O)c3cccnc3)o2)c([N+](=O)[O-])c1 |
| -1 | 3.7 | . | CC(C)C(=O)N1CCN(c2ccccc2NC(=O)c2ccc3c(c2)OCCO3)CC1 |
| -1 | 1.1 | . | Cc1ccc2cc(CN(CCN3CCOCC3)C(=O)NCc3ccccc3)c(=O)[nH]c2c1C |
| 1 | -1.7 | . | Cc1nn(-c2ccccc2)c(C)c1/C=N/NC(=O)c1cc(C2CC2)[nH]n1 |
| -8 | -0.8 | . | CC(C)Nc1nc(NC(C)C)nc(Oc2ccc(/C=N/O)cc2)n1 |
| -30 | 0.1 | . | CCOc1cc(/C=N/NC(=O)C(C)Sc2ccccn2)ccc1O (stereo not drawn) |
| -2 | -0.4 | . | Cc1ccc(-c2cc(C(=O)N/N=C/c3ccco3)n[nH]2)s1 |
| 1 | 2.5 | . | CC/C(=N\NC(=O)c1ccc(N(C)C)cc1)c1ccccc1 |
| 0 | 1.0 | . | O=C(CSc1nnc(SCc2cccc3ccccc23)s1)N/N=C/c1c[nH]c2ccccc12 |
| 6 | 1.4 | . | COc1cc(/C=N/NC(=O)c2nonc2C)ccc1O |
| 7 | 9.1 | . | COc1ccc(C2C(C#N)=C(N)Oc3cc(N)ccc32)cc1OC (stereo not drawn) |
| -13 | 0.0 | . | Cn1c(NC(=O)c2cccnc2)nc2ccccc21 |
| -8 | 4.1 | . | COc1cc2c(cc1NC(=O)COC(=O)Cn1cnc3ccccc31)oc1ccccc12 |
| -10 | -0.1 | . | Cc1cc(C)c(OCC(=O)N/N=C/c2ccc3c(c2)OCO3)c(C)c1 |
| 7 | 1.5 | . | O=C(O)CCCNCc1ccccc1F |
| -15 | 1.7 | . | COc1c(C)cccc1C(=O)NC(=S)Nc1ccc2c(c1)Cc1ccccc1-2 |
| -9 | 1.0 | . | COc1ccc(/C=N/NC(=O)CCc2n[nH]c(=O)[nH]c2=O)cc1OC |
| 1 | -0.1 | . | Fc1ccccc1NC(=S)N1CCN(c2ccccn2)CC1 |
| 11 | -2.8 | . | CCN=c1scc(-c2cccs2)n1/N=C/c1cc(OC)ccc1O |
| -6 | -17 | . | CCCCOc1ccc(C2OC34CCCCC3C(C#N)(C#N)C2(C#N)C(=N)O4)cc1 (stereo not drawn) |
| 12 | -60 | . | CCc1ccc(/C(C)=N/NC(=O)CNC(=O)/C=C/c2ccco2)cc1 |
| 0 | 44* | . | COc1ccc(O)c(/C=N/NC(=O)c2ccc(OCc3cccc(Br)c3)cc2)c1 |
| -1 | 1.5 | . | CCOC(=O)c1c(NC(=S)Nc2ccc(Cl)cc2)sc(C)c1C |
| -1 | -2.0 | . | COC(=O)c1ccc(/C=N/N2CCN(Cc3ccccc3)CC2)cc1 |
| 11 | 2.5 | . | O=C(N/N=C1\CCCc2ccccc21)c1ccccc1[N+](=O)[O-] |

Following part
| Beta2AR agonist | HNF4A DNA FP | FGF22 binding | canonical_smiles |
| --- | --- | --- | --- |
| 0 | 4.8 | . | O=S(=O)(Nc1cccc(S(=O)(=O)N2CCCCC2)c1)c1ccc(Cl)s1 |
| -2 | -1.5 | . | O=c1cc(CN2CCN(Cc3ccccc3)CC2)c2cc(Cl)ccc2o1 |
| 1 | 0.9 | . | O=C(CSc1n[nH]c(=O)[nH]c1=O)N/N=C/c1ccccc1O |
| 3 | -0.1 | . | C=CCc1cc(/C=N\NC(=O)CSc2nnc(CCCc3ccc(OC)c(C)c3)o2)cc(OC)c1O |
| 0 | -6.7 | . | S=C(N/N=C1\C2CN3CCN(C2)CC1(c1ccccc1)C3)Nc1ccccc1 |
| 0 | 0.9 | . | C=CCn1cnc2c(c1=O)c1nc3ccccc3nc1n2/N=C/c1ccccn1 |
| -8 | -0.5 | . | C/C(=N\NC(=O)c1ccccn1)C12CC3CC(CC(C3)C1)C2 |
| 2 | -2.4 | . | Cc1nc(Cl)c(C(=O)NC(=O)NCc2ccccc2)c(C)c1Cl |
| -2 | -1.5 | . | COc1ccc(/C=C/C(=O)Oc2ccc(/C=N/NC(=O)COc3c(C)cccc3C)cc2)cc1 |
| 2 | 3.1 | . | Cc1n[nH]c(C)c1Sc1ccccc1N=Cc1cc(Cl)cc([N+](=O)[O-])c1O |
| 17 | 11 | . | CCOC(=O)C1=C(C)N=c2s/c(=C\c3ccncc3)c(=O)n2C1c1ccc2c(c1)OCO2 (stereo not drawn) |
| 10 | -6.2 | . | CCOC(=O)C/C(C)=N/NC(=O)Nc1ccccc1 |
| -1 | 0.9 | . | CC1=NN(/C(=N\c2nnc(C)s2)Nc2ccccc2)[C@H](c2ccc(C)cc2)S1 |
| 13 | -1.6 | . | Cc1cc2nc(-c3ccc(SCC(=O)Nc4nccs4)nc3)[nH]c2cc1C |
| -8 | -1.8 | . | CNC(=S)N/N=C/c1cc(Br)cc(Br)c1O |
| -5 | -0.2 | . | COc1ccc(C(=O)NCc2nnc(SCC(=O)Nc3nc4ccccc4s3)o2)cc1 |
| 3 | -0.9 | . | Cc1snc(S(=O)(=O)/C(C#N)=N/Nc2cccc(C(F)(F)F)c2)c1C#N |
| 22 | 0.7 | . | Cc1cccc(C(=O)N/N=C/c2cc(Br)c(Br)o2)c1 |
| 21 | 2.0 | . | N#Cc1c(-c2ccc(Cl)cc2)n(O)c2ccccc12 |
| -1 | 4.1 | . | COc1ccc(/C=N/N2C(=O)CSC2=S)cc1 |
| 0 | -0.2 | . | CC1(C)CC(=O)C(C=Nc2ccc(Cl)cn2)=C(O)C1 |
| -3 | 1.5 | . | CCOc1cc(/C=N/NC(=O)CSc2nncn2C)ccc1OCc1cccc(C)c1 |
| 0 | 3.1 | . | COc1ccc(S(=O)(=O)N2CCOCC2)cc1NC(=O)CO/N=C/c1ccccc1OC(F)F |
| 1 | 0.9 | . | COc1ccc(-c2oc(/N=C/N3CCCC3)c(C#N)c2-c2ccc(OC)cc2)cc1 |
| -5 | 7.5 | . | O=c1oc2ccc3ccccc3c2cc1-c1nnc(-c2cccs2)o1 |
| 2 | -6.7 | . | O=C(COc1cccc2ccccc12)N/N=C/C=C/c1ccccc1 |
| 12 | 2.9 | . | O=C(N/N=C/c1ccncc1)C1CC1C(=O)N/N=C/c1ccncc1 (stereo not drawn) |
| 10 | -0.5 | . | C/C(=N\NC(=O)C1COc2ccccc2O1)c1ccccn1 (stereo not drawn) |
| . | -5.6 | i | CCCCNC(=O)C1c2ccccc2OCC(=O)N1CCc1c[nH]c2ccccc12 (stereo not drawn) |
| . | -1.5 | i | CC1=C(C(=O)Nc2cc(C(=O)NCc3ccccc3)ccc2C)SCCO1 |
| . | 1.1 | i | COc1ccc(-n2c(C)c3c(C)nnc(C)c3c2C)cc1OC |
| . | -5.4 | i | O=C(OC1CC2CC1[C@H]1CCCCN1C2=O)N1CCN(S(=O)(=O)c2ccccc2)CC1 (stereo partly drawn) |
| . | -0.4 | i | O=C(NC1CCCC1)C1c2ccccc2OCC(=O)N1Cc1ccccc1 (stereo not drawn) |
| . | -2.5 | i | COc1ccc(C(O)c2ncc(-c3ccc4ccccc4c3)[nH]2)cc1 (stereo not drawn) |
| . | 1.6 | i | COC(=O)c1cc(OC)c(OC)cc1NC(=O)CCN1C(=O)C2CCCCC2C1=O (stereo not drawn) |
| . | 2.6 | i | Cc1cc(C)c2cc(C#N)c(NCCNC(=O)c3cccnc3)nc2c1 |
| . | 0.5 | i | CC1=C(C(=O)N(C(C)C)C(C)C)CC(CC(=O)NCc2cccs2)C(=O)N1Cc1ccc(C(C)(C)C)cc1 (stereo not drawn) |
| . | -2.4 | i | CCCS(=O)(=O)NC(=O)C1(C)CCCN(C(=O)c2c(C)noc2C)C1 (stereo not drawn) |
| . | -1.7 | i | O=C(c1[nH]c(C(F)(F)F)nc1-c1ccccc1)N1CCN(C(=O)C2CCCO2)CC1 (stereo not drawn) |
| . | 0.7 | i | Cc1ccc(OCc2cc(C(=O)N(C)C3CCCc4ccccc43)no2)cc1C (stereo not drawn) |
| . | 2.9 | i | COc1ccc(CN2C(=O)C(CC(=O)NCCCN(C)C)CC(C(=O)N3CCCCCC3)=C2C)cc1 (stereo not drawn) |
| . | -1.3 | i | CCCCOCCOC(=O)C1OC1(C)c1ccccc1 (stereo not drawn) |
| . | -0.1 | i | CCN1C(=O)[C@@H]2[C@@H]3CN(S(=O)(=O)c4ccccc4C)[C@@H](c4ccc(Cl)cc4)[C@@H]3C(=O)C[C@@H]2C1=O |
| . | -6.9 | i | O=C1NC(Cc2ccccc2)c2nc3ccc(Cl)cc3c(=O)n2-c2ncccc21 (stereo not drawn) |
| . | -2.6 | i | Cc1cc(C)c(NS(=O)(=O)c2ccc3c(c2)oc(=O)n3C)c(C)c1 |
| . | 2.2 | i | CSc1ncnc2c1ncn2CCCNCc1ccc(C)o1 |

Of the compounds above, 13 have an aryl thioether with sulfur outside any ring:
| Beta2AR agonist | HNF4A DNA FP | FGF22 binding | canonical_smiles |
| --- | --- | --- | --- |
| 5 | 5.2 | . | Cc1ccc2cc(C#N)c(SCC(=O)NNC(=O)Cc3ccccc3)nc2c1 |
| 2 | -2.0 | . | COc1cccc(/C=N/NC(=O)CSc2ccccc2C)c1O |
| 1 | -1.9 | . | CCOc1ccc(/C=N/n2c(SC)nnc(C(C)(C)C)c2=O)cc1 |
| -17 | 1.8 | . | NC(=O)CSc1nc2sc(-c3ccccc3)cc2c(=O)n1N |
| -30 | 0.1 | . | CCOc1cc(/C=N/NC(=O)C(C)Sc2ccccn2)ccc1O (stereo not drawn) |
| 0 | 1.0 | . | O=C(CSc1nnc(SCc2cccc3ccccc23)s1)N/N=C/c1c[nH]c2ccccc12 |
| 1 | 0.9 | . | O=C(CSc1n[nH]c(=O)[nH]c1=O)N/N=C/c1ccccc1O |
| 3 | -0.1 | . | C=CCc1cc(/C=N\NC(=O)CSc2nnc(CCCc3ccc(OC)c(C)c3)o2)cc(OC)c1O |
| 2 | 3.1 | . | Cc1n[nH]c(C)c1Sc1ccccc1N=Cc1cc(Cl)cc([N+](=O)[O-])c1O |
| 13 | -1.6 | . | Cc1cc2nc(-c3ccc(SCC(=O)Nc4nccs4)nc3)[nH]c2cc1C |
| -5 | -0.2 | . | COc1ccc(C(=O)NCc2nnc(SCC(=O)Nc3nc4ccccc4s3)o2)cc1 |
| -3 | 1.5 | . | CCOc1cc(/C=N/NC(=O)CSc2nncn2C)ccc1OCc1cccc(C)c1 |
| . | 2.2 | i | CSc1ncnc2c1ncn2CCCNCc1ccc(C)o1 |

Screening results (PubChem)

Not all compounds are listed, so the mix of outcomes need not match the whole.
